Arbovirus inh: antivirals against arbovirus infection, primary screen, cell-based, full library, 10K replicate subset; arbovirus infection cell-based antiviral screen; inhibition, % at 10 µM; 200,000 compounds, 0.37% hits; AID 1251, 2008;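 active = inhibition from about 30%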;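 also: bluetongue infection of BSR cells; cell survival read as ATP light after 72 h; 0% = infected wells without compound and 100% = uninfected wells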
Mtb growth: M. tuberculosis H37Rv growth inhibitors, H37Rv strain (AID 1626) | 220,000 compounds, 0.95% hits | M. tuberculosis H37Rv growth inhibition; higher % means a stronger effect | one-dose inhibition, % at 10 µM; IC50 in µM for titrated hits;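 active = confirmed in a dose series; inconclusive = inhibition above 80% but not taken into the dose series; inactive = below 80% or under 30% at every dose of the series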;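 also: bacteria incubated seven days before Alamar blue readout; 0% = bacteria only wells and 100% = bacteria with antibiotic wells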
RecA splice inh: Mtb RecA intein splicing inhibitors, primary screen, biochemical, fluorescence, HTS | AID 2221, 2009 | Protein RecA (Mycobacterium tuberculosis (strain ATCC 25618 / H37Rv)), P9WHJ3 | 290,000 compounds, 0.75% hits | cell-free RecA intein splicing | inhibition, %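 (about 9 µM by stock and volumes)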; in the data active = inhibition above about 30%; inconclusive = no clear call, values can overlap the other calls;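 also: 0% = vehicle wells and 100% = reference inhibitor control wells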
Target sequence (P9WHJ3 whole entry, looked up, canonical isoform): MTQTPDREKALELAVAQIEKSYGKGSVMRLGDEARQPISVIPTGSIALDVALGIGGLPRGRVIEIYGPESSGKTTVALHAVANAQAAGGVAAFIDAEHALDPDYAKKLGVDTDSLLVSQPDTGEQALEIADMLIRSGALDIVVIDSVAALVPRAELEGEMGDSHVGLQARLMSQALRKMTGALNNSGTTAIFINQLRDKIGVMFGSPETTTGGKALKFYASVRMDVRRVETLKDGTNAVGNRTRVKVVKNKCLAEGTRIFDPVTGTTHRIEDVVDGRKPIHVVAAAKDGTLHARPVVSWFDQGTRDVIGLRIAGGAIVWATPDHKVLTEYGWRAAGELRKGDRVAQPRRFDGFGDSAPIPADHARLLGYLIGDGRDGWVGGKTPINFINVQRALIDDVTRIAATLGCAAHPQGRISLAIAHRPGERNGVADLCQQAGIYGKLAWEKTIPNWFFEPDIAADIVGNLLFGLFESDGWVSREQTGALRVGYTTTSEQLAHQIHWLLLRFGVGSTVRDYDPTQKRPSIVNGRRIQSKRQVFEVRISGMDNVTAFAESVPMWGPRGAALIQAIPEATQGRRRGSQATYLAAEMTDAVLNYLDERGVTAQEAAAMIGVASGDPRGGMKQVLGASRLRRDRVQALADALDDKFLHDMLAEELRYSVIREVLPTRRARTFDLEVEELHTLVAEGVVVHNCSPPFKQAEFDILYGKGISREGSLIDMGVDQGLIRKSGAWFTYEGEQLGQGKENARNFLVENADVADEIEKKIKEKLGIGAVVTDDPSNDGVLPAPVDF
YopH PTP inh: YopH tyrosine phosphatase inhibitors, primary screen, biochemical, fluorescence Ex485/Em525 | YopH tyrosine phosphatase [Yersinia enterocolitica] | inhibition, %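 (about 10 µM by stock and volumes)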 | 140,000 compounds, 0.16% hits | AID 898, 2007;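 active = inhibition of 50% or more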;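 also: controls were vehicle for no effect and minimum signal wells for full effect; inactives centre near -20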
Mtb bLac sens: beta-lactam sensitization of Mtb H37Rv, H37Rv; 330,000 compounds, 0.27% hits; AID 434955, 2010; M. tuberculosis H37Rv growth with meropenem, percent inhibition; hits of this screen are not shown here; inhibition, % at 25 µM;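 active = about 74% or more and at least 40 points above the plate without the antibiotic, then above 30% in a dose series; inconclusive = first-round hits that could not be retested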;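 also: growth measured after seven days incubation then overnight dye step; 0% = bacteria only wells and 100% = bacteria with antibiotic; twin plates without the antibiotic show which effects depend on it; some results filed as inactive read as strong as hits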
Arbovirus inh repeat: also measured in Arbovirus inh; calls as there; inhibition, %; measured here: 10K subset replicate screen; many hits read low in the repeat;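 first of two repeat runs on a subset; 0% = infected and 100% = uninfected wells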
* marks the source's active call; other numbers are inactive results; ? = inconclusive; . = no result given.

SMILES | Arbovirus inh | Mtb growth | RecA splice inh | YopH PTP inh | Mtb bLac sens | others
CCOC(=O)c1ccc(N2C(=O)C(CC(N)=O)N(NC(=O)c3cccc(F)c3)C2=S)cc1 (centres undefined) | . | . | -0.9 | . | 3
CC(=O)c1cn(CCOc2cc(C)ccc2C)c2ccccc12 | . | . | 0.7 | . | -6
C=CCC(NCc1ccco1)c1ccc(OC)cc1OC (centres undefined) | 0 | -10% | -3.2 | -5 | 2
CC(C)CCN(C(=O)c1csnn1)C(C(=O)NC1CCCCC1)c1ccc(F)cc1 (centres undefined) | . | . | 0.1 | . | 4
CCCCOC(=O)Oc1ccc2c(=O)c(Oc3cccc(C)c3)coc2c1 | 5 | 2% | 0.9 | -16 | 6
CC(=O)Nc1ccc(N(CC(=O)NC2CCCCC2)C(=O)Cn2nnc(-c3ccccc3)n2)cc1 | . | . | -0.7 | . | -2
COc1ccc(C2CC(=O)C3=C(C2)Nc2ncnn2C3c2ccccc2C)cc1 (centres undefined) | -3 | -3% | -0.8 | -2 | -7
CN(C)c1ccc(CNC(=O)C2CCC(CNc3c(N4CCCCC4)c(=O)c3=O)CC2)cc1 (centres undefined) | . | -4% | 0.2 | . | -7
CCN(CC)CCCN(Cc1cc2cc3c(cc2[nH]c1=O)OCCO3)C(=O)Nc1ccc(F)cc1 | 5 | -11% | -1.0 | -29 | -9
c1ccc(CN=C2NN=C(c3ccccc3)CS2)cc1 | -1 | 3% | 6.2 | . | -11

In the list so far, these contain an aryl methoxy group.
SMILES | Arbovirus inh | Mtb growth | RecA splice inh | YopH PTP inh | Mtb bLac sens | others
C=CCC(NCc1ccco1)c1ccc(OC)cc1OC (centres undefined) | 0 | -10% | -3.2 | -5 | 2
COc1ccc(C2CC(=O)C3=C(C2)Nc2ncnn2C3c2ccccc2C)cc1 (centres undefined) | -3 | -3% | -0.8 | -2 | -7

Further compounds:
SMILES | Arbovirus inh | Mtb growth | RecA splice inh | YopH PTP inh | Mtb bLac sens | others
Cc1ccc(S(=O)(=O)N(C)CC(=O)O/N=C(\N)c2cccnc2)cc1 | . | . | 3.6 | . | -9
S=C(NCCC(c1ccccc1)c1ccccc1)Nc1ccccc1Cl | -25 | -2% | 22 | -10 | -9
COc1ccccc1N1C(=O)NC(=O)/C(=C/c2ccc([N+](=O)[O-])s2)C1=O | . | -11% | 13 | . | 100
CCSc1nc2sccc2c(=O)n1-c1ccccc1 | . | . | 3.6 | . | 0
Cn1c(=O)[nH]c(=O)c2c1nc(N1CCCCCC1)n2CC(N)=O | 4 | 5% | 1.8 | -28 | 2
COc1ccnc(Oc2cccc(C(F)(F)F)c2)c1C(=O)N/C=N/OCc1ccccc1F | -5 | 2% | . | . | -4
COc1ccc(CC(=O)NCC(=O)N/N=C/c2ccco2)cc1 | 5 | 0% | . | -31 | .
CCC1CCCCN1C(=O)CCn1c(=O)oc2ccccc21 (centres undefined) | . | . | 0.4 | . | -3
O=C(c1cccc(OCc2ccccc2)c1)N1CCOCC1 | -4 | -1% | -0.8 | . | -4
CCOC(=O)n1ccc(C(=O)Nc2ccccc2F)n1 | 5 | 1% | 1.5 | -24 | ?

The final 5 records of the section before come first, to join the parts:
SMILES | Arbovirus inh | Mtb growth | RecA splice inh | YopH PTP inh | Mtb bLac sens | others
COc1ccnc(Oc2cccc(C(F)(F)F)c2)c1C(=O)N/C=N/OCc1ccccc1F | -5 | 2% | . | . | -4
COc1ccc(CC(=O)NCC(=O)N/N=C/c2ccco2)cc1 | 5 | 0% | . | -31 | .
CCC1CCCCN1C(=O)CCn1c(=O)oc2ccccc21 (centres undefined) | . | . | 0.4 | . | -3
O=C(c1cccc(OCc2ccccc2)c1)N1CCOCC1 | -4 | -1% | -0.8 | . | -4
CCOC(=O)n1ccc(C(=O)Nc2ccccc2F)n1 | 5 | 1% | 1.5 | -24 | ?
Cn1nc2c3cc(F)ccc3n(Cc3ccc(F)cc3)cc-2c1=O | . | . | 0.0 | . | 0
Cc1cccc(C)c1N(CC(=O)NN=C1CCCCCC1)S(C)(=O)=O | -1 | -2% | -3.8 | -13 | -6
Cn1c(=O)c2c(nc(CO)n2C)n(C)c1=O | 2 | -5% | 0.6 | . | -7
COc1cccc(/C(=N/O)C2CC2c2ccc(Cl)cc2)c1 (centres undefined) | -7 | -6% | 15 | . | 3
NC(=S)NN=C(Cc1ccccc1)Cc1ccccc1 | -18 | ? | 2.0 | . | 94
CCCCCNC(=O)c1ccc2c(=O)[nH]c3c(C(=O)NCC4CCCO4)sc(=S)n3c2c1 (centres undefined) | -2 | 55% | . | -18 | 99
COC(=O)c1ccccc1NC(=S)NC(NC(=O)COc1ccccc1)C(Cl)(Cl)Cl (centres undefined) | -13 | . | 1.0 | -8 | 8
Cc1cc(OCC(=O)NC2CC(C)(C)NC(C)(C)C2)c(C)cc1Br | . | . | 0.0 | . | -2
COCc1cc(CN2CCCC2)c(O)c2ncccc12 | -23 | -1% | 0.4 | -10 | 2 | Arbovirus inh repeat=-15
N#CCN1CCC/C1=C\[N+](=O)[O-] | 15 | -3% | -0.2 | -4 | -1
Cc1cccc(N2C(=O)CC(Sc3nccc(C)n3)C2=O)c1 (centres undefined) | . | . | -2.4 | . | 5
Cc1cc(C)n(C(=O)c2cccc(S(=O)(=O)N3CCOCC3)c2)n1 | 5 | -10% | 3.8 | 13 | -10
O=C(CSc1ccc2ccccc2n1)c1ccc2c(c1)OCO2 | 14 | -18% | -0.7 | -4 | -12
COc1cc2c(=O)n(CCC(=O)NCC3CCCO3)c(=O)n(CC(=O)Nc3ccc(C)cc3)c2cc1OC (centres undefined) | . | . | 0.2 | . | 0
COc1ccc(C)cc1NC(=O)CCNC(=O)Cn1cnc2ccccc2c1=O | . | . | -0.3 | . | -4
CC(C)Nc1nnc(SCC(=O)Nc2ccc3c(c2)C(=O)c2ccccc2C3=O)s1 | -1 | 14% | 0.9 | -31 | -12
Nc1nnc(C(c2ccccc2)c2ccccc2)s1 | -6 | 1% | -1.8 | 10 | 2
COc1cc(NC(=O)COc2cc(O)c3c(c2)OC(C)(C)CC3=O)cc(OC)c1 | . | . | 7.9 | . | -4
O=C(COC(=O)/C=C/c1cccs1)Nc1nc(-c2ccccc2)cs1 | 3 | 8% | 27 | -25 | 99
Nn1c(SCC(=O)N2CCCc3ccccc32)nnc1-c1ccc(Cl)cc1 | 6 | 3% | 0.3 | -32 | -7
O=C(CCCN1C(=O)c2cccc3cccc(c23)C1=O)N1CCN(c2ncccn2)CC1 | 2 | 2% | 1.0 | . | -3
COc1cccc(-c2nc(CS(=O)(=O)CC(=O)NCc3ccc4c(c3)OCO4)c(C)o2)c1 | . | . | -0.2 | . | -5
COc1ccc(CCNS(=O)(=O)c2cccc([N+](=O)[O-])c2)cc1OC | . | . | -1.5 | . | -1
CC(/C=N/Nc1nc2ccccc2[nH]1)=C\c1ccccc1 | 4 | ? | 13 | -28 | 73
COc1ccccc1C(=O)C1CCCN(C(=O)C2CCCC2)C1 (centres undefined) | -1 | 3% | 0.7 | . | 2
Oc1cccc2ccc(/C=C/c3c(F)cccc3Cl)nc12 | -12 | 1.4µM* | -0.9 | . | 95
O=C(CNC(=O)c1cccc(F)c1)N/N=C/c1cccc([N+](=O)[O-])c1 | -2 | -3% | -1.4 | -38 | 0
Nc1ccc(C(=O)N/N=C2/CN3CCC2CC3)cc1 | 7 | -12% | -1.6 | 2 | 2
CC(C)C(=O)Nc1cccc(C(=O)N2CCCCC2C)c1 (centres undefined) | 6 | -5% | 4.0 | -17 | 1
NC(=O)C(Cc1ccccc1)NS(=O)(=O)c1ccc(N2CCCC2=O)cc1 (centres undefined) | 6 | -17% | 0.5 | -91 | -7
CCOC(=O)c1ccc(NS(=O)(=O)c2ccc3c(c2)NC(=O)CCS3)cc1 | . | . | -0.4 | . | 2
COc1ccccc1C(=O)NC(=O)COC(=O)c1ncc(Cl)c(Cl)c1Cl | . | . | 0.9 | . | 15
CCCN(CCC)C(=S)Nc1cc(C(=O)OC)ccc1C(=O)OC | -2 | -1% | -0.2 | -29 | 2
COC(=O)/C(=N/Nc1ccccc1C)N1CCCc2ccccc21 | 10 | 6% | -1.5 | -32 | 2
CC(=O)Nc1ccc(S(=O)(=O)NNC(=O)C(=O)NNc2ccccn2)cc1 | . | -19% | -5.8 | . | 1
[N-]=C=C1C(=O)NC(=O)C([n+]2ccc(-c3ccncc3)cc2)C1c1ccccc1C(F)(F)F (centres undefined) | . | 4% | 16 | . | 3
CSCCC(=O)Nc1ccc(C(C)=O)cc1 | 0 | -3% | 3.5 | -19 | -5
S=C(NC1CCCCC1)N1CCn2cccc2C1c1ccncc1 (centres undefined) | 8 | 0% | -0.8 | . | -3
COc1ccc(S(=O)(=O)N2CCC(N3CCCCC3)CC2)cc1 | -6 | -4% | 0.1 | -41 | -2
O=C(C1CC1)N1CCC(c2nc(-c3ccc(S(=O)(=O)NCC4CCCO4)cc3)no2)CC1 (centres undefined) | 2 | -4% | 0.2 | -8 | -14
O=C(CCN1C(=O)/C(=C\c2cccs2)SC1=S)Nc1ccccn1 | -1 | -2% | -1.2 | . | 28
O=C(O)CCC(=O)Nc1cccc(-c2nc3ccccc3o2)c1 | . | . | -7.2 | . | 7
CC(=O)Nc1ccc(N2C(=O)CSC2c2ccccc2[N+](=O)[O-])cc1 (centres undefined) | 2 | 4% | -3.2 | . | -6
Cc1ccc(S(=O)(=O)/N=C2/C=C(Sc3ncn[nH]3)C(=O)c3ccccc32)c(C)c1 | -32 | 1% | . | 101* | 9
CCCn1nc(NS(=O)(=O)c2cccc3nonc23)c2cc3cc(C)ccc3nc21 | . | . | 0.6 | . | 6
O=C(COc1ccc([N+](=O)[O-])cc1)NNC(=O)Nc1ccc([N+](=O)[O-])cc1 | . | . | -2.0 | . | 40
Cc1ccc(NC(=O)c2cc(S(=O)(=O)N3CCc4ccccc43)cn2C)cc1 | . | . | 2.2 | . | -3
CC1CCN(CC(=O)NCc2ccccc2)CC1 | 11 | -6% | -3.2 | 10 | -17
COc1cccc(C(=O)NN/C(C)=C/C(=O)C(F)(F)C(F)(F)C(F)(F)F)c1 | -17 | 16% | 14 | -24 | -2
COC(=O)c1cccc(C23CC4(C2)[C@H](CN(Cc2ccc(-c5ccccc5)cc2)[C@@H]4c2ccccc2)C3c2ccc(C(F)(F)F)cc2)c1 (some centres undefined) | . | -3% | 5.7 | . | -7
(continued)
SMILES | Arbovirus inh | Mtb growth | RecA splice inh | YopH PTP inh | Mtb bLac sens | others
Cc1ccc(C(=O)COc2cc(O)c3c(=O)cc(-c4ccccc4)oc3c2)cc1 | . | . | 0.6 | . | 7
CCCC[C@@H]1CN=C(N)N1CCCC | . | 14% | -1.8 | . | 6
CC(C)C(C)NC(=O)COc1nc2ccccc2nc1N(C)C1CCCCC1 (centres undefined) | . | . | -2.0 | . | 59
CCOc1ccc(Cl)cc1CNc1nnnn1CC | . | . | -4.1 | . | -2
CC1(C)C=Cc2c(c3ccccc3[nH]c2=O)O1 | -3 | 0% | -0.3 | -42 | 51
CCN1C(=C(C#N)C#N)C=Cc2cc(C)ccc21 | 1 | 22% | -16 | . | -1
CCOC(=O)N1CCN(C(=O)CNC(=O)c2nn(-c3ccc(OC)cc3OC)c(=O)c3ccccc23)CC1 | . | . | 1.3 | . | -11
O=C(COc1ccccc1)NCCSCc1ccc(Cl)cc1 | 5 | 9% | 2.6 | -23 | 11
COc1cc2c(cc1OC)C(NC(=O)c1ccc(C)cc1)CC2=O (centres undefined) | . | . | -1.8 | . | -2
O=S(=O)(N/N=C\c1cccc(F)c1)c1ccccc1 | . | . | -0.2 | . | 5

Some of these compounds in order of molar mass, rising.
SMILES | Arbovirus inh | Mtb growth | RecA splice inh | YopH PTP inh | Mtb bLac sens | others
COc1cc2c(cc1OC)C(NC(=O)c1ccc(C)cc1)CC2=O (centres undefined) | . | . | -1.8 | . | -2
Cc1ccc(C(=O)COc2cc(O)c3c(=O)cc(-c4ccccc4)oc3c2)cc1 | . | . | 0.6 | . | 7
CCOC(=O)N1CCN(C(=O)CNC(=O)c2nn(-c3ccc(OC)cc3OC)c(=O)c3ccccc23)CC1 | . | . | 1.3 | . | -11

Bioassay records deposited in PubChem BioAssay by several laboratories.

Only part of the results is shown; the hit share may differ from the screen's.
